GLA inh pH 4.5 = qHTS Assay for Inhibitors of Human alpha-Galactosidase at pH 4.5; Alpha-galactosidase A (Homo sapiens), P06280; purified enzyme, 4-MU-alpha-Gal fluorescence, pH 4.5; activity change, negative = inhibition, % at 105 µM; 230,000 tested, under 10 active; AID 1467, 2008; inconclusive = small, poorly fitted or top-dose-only inhibition, or a rising curve; inactive = flat fitted curve, though single readings scatter; no compound was filed as active;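 further: 0% = full activity with enzyme and -100% = basal without enzyme; dose as in the result columns while the protocol names 77 µM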
Target sequence (P06280 whole entry, looked up): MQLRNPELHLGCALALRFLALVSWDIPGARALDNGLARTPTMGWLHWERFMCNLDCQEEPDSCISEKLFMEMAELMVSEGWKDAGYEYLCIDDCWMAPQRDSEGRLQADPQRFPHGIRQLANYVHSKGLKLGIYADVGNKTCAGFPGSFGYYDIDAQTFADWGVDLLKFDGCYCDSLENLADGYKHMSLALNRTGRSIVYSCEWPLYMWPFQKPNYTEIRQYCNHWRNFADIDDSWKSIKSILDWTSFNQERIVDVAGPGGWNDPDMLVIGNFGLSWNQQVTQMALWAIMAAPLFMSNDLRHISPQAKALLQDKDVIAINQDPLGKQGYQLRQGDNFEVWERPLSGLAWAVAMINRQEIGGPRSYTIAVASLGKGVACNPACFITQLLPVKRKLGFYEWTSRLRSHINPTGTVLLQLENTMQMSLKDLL
miR-21 FLuc = qHTS Assay for Modulators of miRNAs and/orActivators of miR-21; AID 2288, 2010; 340,000 tested, under 10 active; HeLa miR-21 FLuc reporter, luciferase, 48 h; Potency, µM (top dose mostly 38.3 µM), for the others: at the top dose reporter change, positive = more light; active = well fitted rising curve with a large enough effect; inconclusive = small, poorly fitted or top-dose-only effect; inactive = no such curve, though single readings can be large or run the other way;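 further: % of control where 0% means no effect; miR-21 action dims this reporter so a rising signal means less miR-21 action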
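HeLa cells endogenously expressing miR-21, stably carrying CMV-driven firefly luciferase with a downstream miR-21 binding site, 2000 cells/well. Titrations up to approximately 40 uM, 48 hours; luciferase luminescence read.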
Rango dissoc inh = qHTS Assay for Inhibitors of RanGTP induced Rango (Ran-regulated importin-beta cargo) - Importin beta complex dissociation; Snurportin-1 (Homo sapiens) + GTP-binding nuclear protein Ran (Homo sapiens) + Importin …; AID 540253, 2011; Biochemical FRET Rango-importin beta, RanGTP-induced dissociation; 0.071% of 340,000 active; Potency, µM (titrated, usually from 46.1 µM), without a hit: at the highest dose activity change, negative = inhibition; active means falling FRET ratio curve, often poorly fitted, with flat reads before Ran was added; inconclusive means other falling curves, or compound fluorescence or quenching; inactive means flat or rising ratio curve;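 further: potency means the concentration at half of the fitted maximal effect; % of control where 0% means no effect; nearly all actives have a fitted effect of over 45% in size; -100% = wells without RanGTP and RCC1; the record marks most hits as doubtful in a second field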
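Quantitative HTS using a FRET biosensor: 0.1 uM Rango, 0.25 uM importin beta, 0.6 uM Ran, 2 mM GTP, 0.2 uM RCC1 final, PBS with DTT, Tween-20 and BSA. Post-read taken 45 min after Ran addition.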
Rango-impB inh = qHTS Assay for Inhibitors of Rango (Ran-regulated importin-beta cargo) - Importin beta complex formation. AID 540263, 2011. Potency, µM (top dose mostly 92.2 µM), for the others: at the highest dose inhibition of complex formation. 0.031% of 340,000 active. Importin subunit beta-1 (Homo sapiens), Q14974. Rango CFP/YFP FRET sensor + importin beta, 45 min; active = rising FRET ratio curve, often small or poorly fitted; inconclusive = mostly compound fluorescence or quenching in the first reads; inactive = flat curves in all reads;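 further: potency means the concentration at half of the fitted maximal effect; 0% = DMSO wells and 100% = buffer wells lacking importin beta; nearly all actives have a fitted effect of over 15% in size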
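Inhibition scored from the CFP 486 nm/YFP 530 nm FRET ratio 45 min after adding 0.125 microM importin beta to 50 nM Rango biosensor preincubated 5 min with compound (room temperature, PBS with DTT, Tween-20, BSA). No-importin wells as positive control.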
* = called active by the depositor; ? = inconclusive; nt = no result given; [ ] = remark or other dose.

Start of the listing, in advance, ten compounds:
SMILES | GLA inh pH 4.5 | miR-21 FLuc | Rango dissoc inh | Rango-impB inh
CC(C)C[C@H](NC(=O)c1nc[nH]c1C(=O)NC1CCN(C(=O)OC(C)(C)C)CC1)C(=O)OCc1ccccc1 | -30 | 2% | -1% | -3.5%
Cc1nn(C(C)C(=O)N2CCN(c3ccccn3)CC2)c(=O)c2cc3occc3n12 (stereo not drawn) | 7 | -12% | 3% | -0.4%
COc1ccc(CC(=O)NNS(=O)(=O)c2ccc3ccccc3c2)cc1OC | -7 | 5% | 3% | 0.5%
CCOC(=O)C1CCCN(CCC(=O)Nc2ccc(C)cc2)C1 (stereo not drawn) | 0 | -5% | -27% | -3.1%
O=C(OCn1cncn1)c1ccc(Cl)cc1Cl | 3 | 1% | 17% | 5.6%
COc1ccc2[nH]c3c(C)c4cc[n+](C)cc4c(C)c3c2c1 | nt | nt | -17% | 11%
CCOc1ccc(OCC)c(N=c2oc3c(C)ncc(CO)c3cc2C(N)=O)c1 | 1 | -1% | -2% | 3.2%
CCC1C(=O)C(CC)C(c2ccccc2)NC1c1ccccc1 (stereo not drawn) | nt | -3% | 5% | 3.1%
COC(=O)c1cc2nc(-c3ccccc3)cc(C(F)(F)F)n2n1 | 5 | -1% | -3% | 1.3%
CCOc1ccc(CN2CCN(Cc3cc4ccccc4[nH]3)CC2CCO)cc1 (stereo not drawn) | 0 | -1% | -5% | ?

The listing, from the start:
SMILES | GLA inh pH 4.5 | miR-21 FLuc | Rango dissoc inh | Rango-impB inh
CC(C)C[C@H](NC(=O)c1nc[nH]c1C(=O)NC1CCN(C(=O)OC(C)(C)C)CC1)C(=O)OCc1ccccc1 | -30 | 2% | -1% | -3.5%
Cc1nn(C(C)C(=O)N2CCN(c3ccccn3)CC2)c(=O)c2cc3occc3n12 (stereo not drawn) | 7 | -12% | 3% | -0.4%
COc1ccc(CC(=O)NNS(=O)(=O)c2ccc3ccccc3c2)cc1OC | -7 | 5% | 3% | 0.5%
CCOC(=O)C1CCCN(CCC(=O)Nc2ccc(C)cc2)C1 (stereo not drawn) | 0 | -5% | -27% | -3.1%
O=C(OCn1cncn1)c1ccc(Cl)cc1Cl | 3 | 1% | 17% | 5.6%
COc1ccc2[nH]c3c(C)c4cc[n+](C)cc4c(C)c3c2c1 | nt | nt | -17% | 11%
CCOc1ccc(OCC)c(N=c2oc3c(C)ncc(CO)c3cc2C(N)=O)c1 | 1 | -1% | -2% | 3.2%
CCC1C(=O)C(CC)C(c2ccccc2)NC1c1ccccc1 (stereo not drawn) | nt | -3% | 5% | 3.1%
COC(=O)c1cc2nc(-c3ccccc3)cc(C(F)(F)F)n2n1 | 5 | -1% | -3% | 1.3%
CCOc1ccc(CN2CCN(Cc3cc4ccccc4[nH]3)CC2CCO)cc1 (stereo not drawn) | 0 | -1% | -5% | ?
CCCN1CCN(C(=O)c2ccc(CS(=O)c3ccc(F)cc3)o2)CC1 (stereo not drawn) | nt | 2% | 1% | -4.1%
Cc1nc2ccccc2n1CC(=O)OCC(=O)NC1CC1 | 0 | -4% | 0% | 0.8%
COc1ccc(C(=O)NC2CCCc3c2cnn3-c2cc(F)cc(F)c2)c(OC)c1OC (stereo not drawn) | nt | 22% | 30% | -0.1%
CC(=O)N1c2ccccc2N(Cc2ccc([N+](=O)[O-])cc2)C(=O)C1(C)C | -5 | 2% | -5% | 4.4%
NC(=S)C(c1ccccc1)c1ncc(C(F)(F)F)cc1Cl (stereo not drawn) | nt | -6% | -7% | -2.3%
CCC(C)NC(=O)c1cn(CC)c2cc(N3CCN(C(=O)c4ccco4)CC3)c(F)cc2c1=O (stereo not drawn) | nt | 1% | 3% | -1.1%
Cc1cc([N+](=O)[O-])cc(C)c1OCC(=O)N/N=C/c1ccc(OC(=O)c2ccccc2)cc1 | -5 | -13% | 5% | 1.1%
Cc1ncsc1C(=O)Nc1nc2c(s1)CCCC2 | -5 | -35% | 6% | 2.1%
CC1(C)CC(=O)C(C2(O)C(=O)N(Cc3ccccc3)c3ccccc32)CO1 (stereo not drawn) | -4 | 3% | 12% | 3.5%
Cc1cc(C)n(/N=C/c2ccccc2)c(=O)c1C#N | -13 | -7% | -15% | 4.2%
Cc1ccc2nc(NC(=O)CCNS(=O)(=O)c3ccc(Br)s3)sc2c1 | -6 | -5% | 7% | -3.2%
CCN(CC)C(=O)C(Oc1ccc(S(=O)(=O)N2CCCC2)cc1[N+](=O)[O-])c1ccccc1 (stereo not drawn) | nt | 7% | 25% | 7.9%
O=C(/C=C/c1cccc(F)c1)NCc1ccc2c(c1)OCO2 | nt | -22% | -8% | -1.6%
CCc1cc(CC)c(/C=N/NC(N)=O)c(CC)c1 | 2 | 1% | 2% | 4.0%
COc1ccc(NC(=O)[C@@H]2CCCN2S(=O)(=O)c2ccccc2F)cc1S(=O)(=O)N1CCCCC1 | nt | nt | -6% | -0.5%
COc1ccc(NC(=O)c2[nH]c(C)c(C(C)=O)c2C)cc1S(=O)(=O)Nc1ccc(Br)cc1 | -10 | 14% | -13% | -1.0%
COc1ccc(-c2cn[nH]c2-c2ccc(OCc3ccccc3F)cc2O)cc1OC | -24 | 30% | 0% | 1.2%
Cn1cc(CN2CCCC(C(=O)Nc3cccc(-n4cccn4)c3)C2)cn1 (stereo not drawn) | nt | 0% | 12% | 0.0%
O=C(CN1C(=O)NC(c2ccccc2)(c2ccccc2)C1=O)NC1CCS(=O)(=O)C1 (stereo not drawn) | nt | nt | 24% | 0.5%
N#Cc1cc(C(=O)c2cc(Cl)ccc2O)cn(CC2CCCO2)c1=O (stereo not drawn) | -4 | 0% | -24% | -2.3%
CC(C)C(NC(=O)c1ccc(C(C)(C)C)cc1)C(=O)N1CCC(C(N)=O)CC1 (stereo not drawn) | nt | nt | 1% | -1.2%
CN1CCC(=NNC(=O)c2cn(-c3ccccc3)nc2-c2ccccc2)CC1 | -4 | -5% | 1% | ?
CC1C(=O)Nc2ccc(S(=O)(=O)NCCc3ccc(Cl)cc3)cc2NC1=O (stereo not drawn) | nt | 3% | -1% | -1.3%
Nc1nccnc1C(=O)OCC(=O)Nc1ccc2[nH]c(=O)[nH]c2c1 | nt | nt | -1% | -2.6%
O=C(N[C@@H](Cc1c[nH]c2ccccc12)C(=O)O)OCC1c2ccccc2-c2ccccc21 | nt | nt | 18% | 2.0%
COC(=O)c1ccc(C(=O)Nc2cc(Cl)ccc2Cl)cc1NC(=O)c1ccccc1C | 2 | -1% | -4% | -2.6%
CC1(C)Cc2ccccc2-c2n[nH]c(=S)n21 | -2 | -10% | -17% | -4.3%
O=S(=O)(c1ccccc1)C1(S(=O)(=O)c2ccccc2)CCCC1 | -5 | -5% | -11% | -1.0%
O=C(CCC(=O)Nc1ccc(F)cc1)N/N=C/c1ccc(O)cc1O | 0 | -16% | ? | ?
CCOC(=O)c1c(C)[nH]c(C(=O)OCC(=O)Nc2ccc(Cl)cn2)c1C | nt | nt | -8% | ?
CCCCn1c(SCC(=O)Nc2nnc(CC)s2)nc2ccccc2c1=O | -2 | -4% | 1% | 3.8%
O=C(c1noc2c1CCCC2)N1CCC(CO)(Cc2ccccc2Cl)CC1 | -8 | 3% | 0% | 2.7%
O=C(O)COc1cccc(/C=C2/SC(=S)N(Cc3ccccc3)C2=O)c1 | nt | -1% | 2% | -2.4%
Nc1ncc(S(=O)(=O)c2ccc(Cl)cc2)c(N)n1 | nt | 1% | -14% | -0.6%
COC(=O)c1scc(S(=O)(=O)C(C)C)c1N/N=C(\C#N)C(=O)c1ccc(Cl)cc1 | -12 | -4% | 1% | 2.0%
O=C(NCCS(=O)(=O)c1ccc(Br)cc1)c1ccccc1Cl | nt | -2% | -5% | -0.7%
CCOC(=O)C1CCCN(C(=O)C2CCC(CNS(=O)(=O)c3ccc(NC(C)=O)cc3)CC2)C1 (stereo not drawn) | 1 | 3% | 1% | -3.4%
CN(C)S(=O)(=O)c1cccc(CSc2cccc[n+]2[O-])c1 | 2 | -5% | -11% | ?
CCOc1ccc(COC(=O)C2CC(=O)N(CCc3ccccc3)C2)cc1OC (stereo not drawn) | nt | nt | 36% | -2.6%
CCOC(=O)CC1C(=O)NCCN1c1nc2c(C)cccn2c(=O)c1/C=C1\SC(=S)N(C(C)CC)C1=O (stereo not drawn) | -17 | 11% | ? | ?
S=C(Nc1ccccc1Cl)N1CCC(c2ccccc2)C1 (stereo not drawn) | -1[21.1 µM] | -41% | -1% | 0.2%
N#CC1C(C#N)N2CCCN2C1c1ccc(Br)cc1 (stereo not drawn) | -11 | 2% | 13% | ?
COc1ccc(N2CCN(C(CNC(=O)C(C)(C)C)c3ccco3)CC2)cc1 (stereo not drawn) | 7 | 0% | 11% | 0.3%
CC1=NN(C(=O)Cn2ccc([N+](=O)[O-])n2)C(O)(C(F)(F)F)C1 (stereo not drawn) | 6 | 1% | -20% | -2.9%
O=C(OCCN1C(=O)c2ccccc2C1=O)c1ccco1 | -9 | -5% | 9% | -4.0%
O=C(CN1C(=O)NC2(CCCC2)C1=O)N1CCN(c2ccccc2Cl)CC1 | nt | nt | -4% | -5.1%
CC(C)Cc1nnc(NC(=O)CCC(=O)NC2CCCc3ccccc32)s1 (stereo not drawn) | 6 | -1% | 5% | 6.2%
COc1ccc(CN2CCOCC2)c(C)c1C | -11 | 1% | 16% | -0.8%
O=C(COC(=O)CCCN1C(=O)c2cccc3cccc(c23)C1=O)Nc1cccc(Br)c1 | -13 | -7% | 13% | ?
CCOC(=O)C(C)On1c(-c2ccccc2)nc2ccc([N+](=O)[O-])cc21 (stereo not drawn) | -6 | -34% | 27% | 1.9%

Remaining list, next part
SMILES | GLA inh pH 4.5 | miR-21 FLuc | Rango dissoc inh | Rango-impB inh
COc1ccc(Cl)cc1NS(=O)(=O)c1cccc(C(=O)NCC(c2ccco2)N(C)C)c1 (stereo not drawn) | nt | -2% | -9% | 2.4%
CC(C)(C)OC(=O)NNC(=O)C12CC3CC(CC(C3)C1)C2 | 11 | -5% | -1% | -8.9%
CCCCNC(=O)c1cc2n(n1)C(C(F)(F)F)CC(c1ccccc1)N2 (stereo not drawn) | -6 | -1% | -19% | 4.4%
COC(=O)c1ccccc1NC(=O)Nc1ccc(Br)cn1 | 1 | -34% | -11% | 0.9%
Cc1cc(N2C(=O)C(O)=C(C(=O)c3cc4ccccc4o3)C2c2ccc(Br)cc2)no1 (stereo not drawn) | nt | -24% | ? | ?
CCOC(=O)C1=C(c2ccccc2)NC(=S)NC1C (stereo not drawn) | -3 | -5% | -11% | 3.6%
CCOC(=O)C(=O)Nc1nnc(CCc2ccccc2)s1 | -3 | -4% | -1% | 3.4%
O=C(CSc1nnc(-c2ccco2)o1)Nc1cccc([N+](=O)[O-])c1 | nt | 0% | -17% | 4.5%
CCC(=O)Nc1nc2ccccc2n1Cc1ccccc1 | 3 | 12% | -1% | -0.8%
CN1CCN(c2ccc(Cl)cc2NC(=O)CN2C(=O)NC(C)(c3ccccc3)C2=O)CC1 (stereo not drawn) | nt | nt | -13% | -0.2%
Cc1ccc(Cl)cc1NC(=O)CSc1nnc(C)n1-c1ccccc1 | 5 | -5% | 1% | 1.1%
COc1ccc(/C=C2\SC(=O)N(CCNC(=O)C3CSC4(C)CCC(=O)N34)C2=O)cc1 (stereo not drawn) | nt | nt | -11% | 2.7%
CCOC(=O)c1c(-c2ccccc2)csc1NC(=O)CSc1nnnn1C | -19 | 19% | 3% | -1.1%
CS(=O)Cc1cc(Sc2ccccc2)nc(-c2ccncc2)n1 (stereo not drawn) | 6 | -18% | 2% | -0.2%
NC(=O)c1ccc(NC(=O)COC(=O)/C=C/c2ccc3c(c2)OCO3)cc1 | -2 | -7% | 23% | 0.8%
CCOc1ccccc1NC(=O)CN(C)S(=O)(=O)c1ccc2[nH]c(=O)oc2c1 | nt | -4% | 18% | 2.6%

Some of the compounds tested (hit frequency here may not be typical).
